# MITF inh – inhibitors of MITF; TRPM1 promoter luciferase, luminescence, 24 h; inhibition, % (concentration not given with the values); 0.28% of 37,000 active; AID 2240;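 active = most replicates at 85% or more, or half of them and the mean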;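 note: human melanocyte line stably carrying TRPM1 promoter luciferase reporter; 0% = vehicle wells and 100% = a positive control; the first replicate is given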
# PD-1 reversal – activators reversing PD-1 mediated T-cell inhibition. 29,000 tested, under 10 active. AID 2316. activation, % (no concentration beside the values). primary human CD4 T cells, PD-L1 beads, CellTiter-Glo 96 h;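 active = replicate mean of 50% or more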;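 note: 0% = median vehicle wells and 100% = positive control; 100 nL library stock added to about 50 µL; numbers are from one replicate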
# Shh pathway inh – Sonic Hedgehog pathway inhibition; 2.1% of 22,000 active; Shh-LIGHT2 Gli-luciferase reporter, 30 h; inhibition, % (no concentration beside the values);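 active = replicate mean of 65% or more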;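 note: pathway switched on by Shh-conditioned medium diluted 1 in 25 in low serum; 100 nL library stock added to about 40 µL; 0% = median of neutral wells and 100% = positive control level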
# YB-1 expression – YB-1 expression inhibition; U2OS, qRT-PCR YB-1 vs CDIP delta delta Cp, 16 h; hits give high values; zero = DMSO, each unit about twofold; delta delta Cp (YB-1 minus CDIP) (no concentration beside the values); 0.37% of 30,000 active;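 active = delta delta Cp rounded down to an integer at or above 3, about 3 SD of DMSO wells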;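 note: higher means less YB-1 transcript or more CDIP transcript relative to DMSO; stock transfer was 100 nL into about 100 µL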
# The depositor's hits bear a star; . = no result given.
SMILES,MITF inh,PD-1 reversal,Shh pathway inh,YB-1 expression
CC(=O)O[C@H]1C[C@@]2(C)[C@@H](C[C@@H](O)C3[C@]2(C)CC[C@H]2[C@H](C)[C@H](O)CC[C@]32C)/C1=C(/CCC=C(C)C)C(=O)O (some centres undefined),4,.,-18,0.046
C[C@@H]1CN([C@@H](C)CO)C(=O)c2cc(NC(=O)c3ccncc3)ccc2O[C@@H]1CN(C)S(C)(=O)=O,2,.,.,-0.62
Cc1cc2nc(-c3ccc(Cl)c(NC(=O)COc4ccccc4)c3)oc2cc1C,-15,1.3,.,.
C[C@H](CO)N1C[C@H](C)[C@@H](CN(C)C(=O)Nc2ccc(C(F)(F)F)cc2)Oc2ccc(NC(=O)CCC(F)(F)F)cc2C1=O,5,-1.0,-24,0.29
COc1ccccc1C(=O)Nc1c(C)[nH]c(=O)[nH]c1=O,-6,4.1,.,.
O=C1CC(c2ccccc2)N(c2cccc(C(F)(F)F)c2)C(=S)N1 (centres undefined),-1,0.5,40,.
O=C(NCCN1CCOCC1)c1cccc(S(=O)(=O)N2CCCC2)c1,-6,2.0,.,.
Cc1ccc(C(=O)CSc2nnc(-c3ccccc3)n2-c2ccccc2)o1,-2,-0.4,.,.
O=c1c(C(F)(F)F)cccn1Cc1ccccc1,5,-1.5,-5,-0.21
COc1ccc(NC(=O)N(C)C[C@H]2Oc3ccc(NC(=O)Nc4ccc5c(c4)OCO5)cc3C(=O)N([C@H](C)CO)C[C@H]2C)cc1,-14,.,6,0.19
COc1ccc(S(=O)(=O)N(C)C[C@H]2Oc3c(NC(=O)Nc4c(C)noc4C)cccc3C(=O)N([C@@H](C)CO)C[C@H]2C)cc1,4,.,4,0.061
Cc1ccc(C)c(NC(=O)c2ccc(OCC(=O)Nc3ccccc3C)cc2)c1,-19,2.2,.,.
Cc1ccc(NC(=O)COc2ccc(Br)cc2C)c([N+](=O)[O-])c1,-29,1.1,.,.
COc1ccc(NC(=O)Nc2ccc3c(c2)C(=O)N([C@@H](C)CO)C[C@@H](C)[C@@H](CN(C)C(=O)Nc2ccc4c(c2)OCO4)O3)cc1,-8,-0.3,36,0.15
C[C@H]1CN([C@@H](C)CO)C(=O)c2cccc(NS(=O)(=O)c3cccs3)c2O[C@H]1CN(C)C(=O)Nc1ccc2c(c1)OCO2,-3,-0.7,-72,1
C[C@@H]1CN([C@@H](C)CO)C(=O)c2cc(N(C)C)ccc2O[C@H]1CN(C)Cc1ccc(-c2ccccc2)cc1,2,.,-6,0.29
COc1ccc(CCNc2ccncn2)cc1OC,-3,1.2,.,.
COc1ccc(NC(=O)N(C)C[C@@H]2Oc3c(NC(=O)c4nc5ccccc5s4)cccc3C(=O)N([C@H](C)CO)C[C@@H]2C)cc1,-39,-1.6,-8,-0.23
CN1CCN(S(=O)(=O)c2ccc(NC(=O)C3CC=CCC3C(=O)O)cc2)CC1 (centres undefined),-7,2.0,.,.
CCn1c(SCC(=O)Nc2ccc(F)c(F)c2F)nnc1-c1ccccc1O,-21,-0.1,.,.
COc1ccc(S(=O)(=O)N(C)C[C@@H]2Oc3ccc(NS(=O)(=O)c4ccc(F)cc4)cc3CC(=O)N([C@@H](C)CO)C[C@@H]2C)cc1,-7,0.8,31,-0.25
Nc1ccccc1C(=O)NCc1c(F)cccc1Cl,-2,-0.5,-5,-0.042
Cc1cc(C)c(NC(=O)CSc2nnc(-c3ccc(Br)cc3)o2)c(C)c1,1,0.8,.,.
Cc1ccc([N+](=O)[O-])cc1S(=O)(=O)NCCc1c(C)[nH]c2ccccc12,-23,1.0,.,.
C[C@@H]1CN([C@@H](C)CO)C(=O)c2cc(NS(=O)(=O)c3ccc(Cl)cc3)ccc2O[C@H]1CN(C)Cc1ccc(C(=O)Nc2ccccc2N)cc1,3,1.0,.,-0.24

# Next section
SMILES,MITF inh,PD-1 reversal,Shh pathway inh,YB-1 expression
OCC1OC(OCC2OC(NCCc3ccc(O)cc3)C(O)C(O)C2O)C(O)C(O)C1O (centres undefined),7,-1.2,-9,-0.013
COc1ccc(OC)c(CCCCc2cc(OC)ccc2OC)c1,-12,0.2,2,0.12
C[C@@H]1CN([C@@H](C)CO)C(=O)c2cc(NC(=O)Nc3cccc4ccccc34)ccc2O[C@@H]1CN(C)S(=O)(=O)c1ccc(F)cc1,22,0.7,13,-0.012
C[C@@H]1CN([C@H](C)CO)C(=O)Cc2cc(NS(C)(=O)=O)ccc2O[C@H]1CN(C)Cc1ccc(C(=O)O)cc1,0,0.7,-23,-0.56
C[C@@H]1CN([C@H](C)CO)C(=O)Cc2cc(NC(=O)CCN3CCOCC3)ccc2O[C@@H]1CN(C)Cc1ccc(C(F)(F)F)cc1,-8,.,.,0.27
C[C@H](CO)N1C[C@H](C)[C@@H](CN(C)CC2CC2)Oc2c(NC(=O)c3nc4ccccc4s3)cccc2C1=O,8,-2.1,10,0.56
C[C@H]1CN([C@@H](C)CO)C(=O)c2cc(NC(=O)Nc3ccc4c(c3)OCO4)ccc2O[C@H]1CN(C)Cc1ccccc1,-8,-0.5,.,-0.24
C[C@H]1CN([C@@H](C)CO)C(=O)c2cc(NC(=O)NC3CCCCC3)ccc2O[C@H]1CN(C)S(=O)(=O)c1ccccc1,-12,-0.4,3,0.029
C[C@H]1CN([C@@H](C)CO)C(=O)c2cccc(N(C)C)c2O[C@@H]1CN(C)C(=O)Nc1ccccc1,-3,-0.2,17,-0.15
Cc1cccc(NC(=O)c2cccc(C(=O)Nc3cccc(C)c3)c2)c1,-13,0.1,-51,-0.24
O=c1[nH]nc(SCc2ccccc2)n1-c1ccc(OCc2ccccc2)cc1,1,0.0,33,-0.036
C[C@H](CO)N1C[C@H](C)[C@H](CN(C)Cc2ccc3c(c2)OCO3)Oc2ccc(NC(=O)CCC(F)(F)F)cc2C1=O,0,0.2,-11,0.11
C[C@H]1CN([C@@H](C)CO)C(=O)c2cccc(NC(=O)Nc3ccccc3)c2O[C@@H]1CN(C)C,-20,.,3,-0.01
C[C@@H]1CN([C@H](C)CO)C(=O)c2cc(NC(=O)Nc3ccc(C(F)(F)F)cc3)ccc2O[C@H]1CN(C)S(=O)(=O)c1ccc(Cl)cc1,11,-2.1,.,0.08
CNC[C@@H]1Oc2ccc(NC(=O)CCC(F)(F)F)cc2C(=O)N([C@H](C)CO)C[C@@H]1C,-7,5.3,.,-0.098
Cc1noc(C)c1S(=O)(=O)Nc1ccc2c(c1)CC(=O)N([C@@H](C)CO)C[C@H](C)[C@@H](CN(C)C)O2,-5,1.1,0,0.27
C[C@@H]1CCCCO[C@H](CN(C)S(=O)(=O)c2ccc(F)cc2)[C@@H](C)CN([C@H](C)CO)C(=O)c2cc(NS(=O)(=O)c3ccc(F)cc3)ccc2O1,18,.,-28,0.099
CCOC(=O)c1ccc(OC(=O)CCCCCN=C(N)N)cc1,-3,.,-24,0.029
O=C(/C=C/c1ccc(O)cc1)NCCCCN(CCCN(CCCNC(=O)/C=C/c1ccc(O)cc1)C(=O)/C=C/c1ccc(O)cc1)C(=O)/C=C/c1ccc(O)cc1,5,-0.3,14,-0.36
Cc1ccc(S(=O)(=O)N(C)C[C@H]2Oc3ccc(NC(=O)Cc4cn(C)c5ccccc45)cc3C(=O)N([C@@H](C)CO)C[C@@H]2C)cc1,46,0.0,37,-0.44
O=C(/C=C/Sc1ccc(Cl)cc1)c1ccccc1,-2,-6.1,-6,0.21
C[C@@H]1CCCCO[C@@H](CN(C)C(=O)CCCN(C)C)[C@@H](C)CN([C@H](C)CO)C(=O)c2cc(NC(=O)Nc3ccc4c(c3)OCO4)ccc2O1,-8,2.7,-4,-0.023
C[C@@H]1CN([C@@H](C)CO)C(=O)c2cccc(NC(=O)c3cnccn3)c2O[C@H]1CN(C)Cc1ccc2c(c1)OCO2,7,-1.2,21,-0.46
C[C@@H]1CCCCO[C@@H](CN(C)S(=O)(=O)c2ccc(Cl)cc2)[C@@H](C)CN([C@H](C)CO)C(=O)c2cc(NC(=O)Nc3ccc4c(c3)OCO4)ccc2O1,-3,.,-1,0.42
C[C@H]1CN([C@@H](C)CO)C(=O)c2cc(NC(=O)C3CCCCC3)ccc2O[C@H]1CN(C)C(=O)Nc1cccc2ccccc12,6,5.7,.,-0.046

# Three structures already listed, sorted by count of non-hydrogen atoms, smallest number first.
SMILES,MITF inh,PD-1 reversal,Shh pathway inh,YB-1 expression
O=c1[nH]nc(SCc2ccccc2)n1-c1ccc(OCc2ccccc2)cc1,1,0.0,33,-0.036
C[C@H]1CN([C@@H](C)CO)C(=O)c2cc(NC(=O)Nc3ccc4c(c3)OCO4)ccc2O[C@H]1CN(C)Cc1ccccc1,-8,-0.5,.,-0.24
C[C@@H]1CN([C@H](C)CO)C(=O)c2cc(NC(=O)Nc3ccc(C(F)(F)F)cc3)ccc2O[C@H]1CN(C)S(=O)(=O)c1ccc(Cl)cc1,11,-2.1,.,0.08

# Next entries.
SMILES,MITF inh,PD-1 reversal,Shh pathway inh,YB-1 expression
Cc1cc(C)nc(SCc2noc(-c3ccc(Cl)cc3)n2)n1,-26,1.1,.,.
COC(=O)c1cccc(NC(=O)CSc2nc(C)cc(C(F)(F)F)n2)c1,-15,-0.4,.,.
CSc1nnc(-c2ccccc2NC(=O)c2ccccc2)c(=O)[nH]1,6,3.0,.,.
C[C@H]1CN([C@@H](C)CO)C(=O)c2cccc(NC(=O)Nc3ccc4c(c3)OCO4)c2O[C@H]1CN(C)C,-8,.,7,0.047
Cc1noc(C)c1S(=O)(=O)Nc1ccc2c(c1)C(=O)N([C@@H](C)CO)C[C@H](C)[C@@H](CN(C)CC1CC1)O2,3,0.4,-21,0.003
Cc1sc2ncnc(SCC(=O)N3CCC(c4noc5ccc(F)cc45)CC3)c2c1C,28,-0.6,.,.
C[C@@H]1CCCCO[C@H](CN(C)C(=O)NC2CCCCC2)[C@@H](C)CN([C@H](C)CO)C(=O)c2cc(NC(=O)C3CCCCC3)ccc2O1,10,-0.8,-5,-0.58
CC(C)NC(=O)Nc1cccc2c1O[C@@H](CN(C)S(=O)(=O)c1ccccc1)[C@@H](C)CN([C@@H](C)CO)C2=O,0,-0.2,-1,0.11
C[C@@H]1CCCCO[C@@H](CN(C)C(=O)c2ccncc2)[C@@H](C)CN([C@H](C)CO)C(=O)c2cc(N(C)C)ccc2O1,-13,1.9,4,-0.099
C[C@H](CO)N1C[C@H](C)[C@H](CN(C)C(=O)Nc2ccc(C(F)(F)F)cc2)Oc2ccc(NC(=O)CCN3CCOCC3)cc2CC1=O,-8,1.9,-38,0.036
Cc1noc(C)c1S(=O)(=O)Nc1cccc2c1O[C@H](CN(C)Cc1ccc(C(=O)O)cc1)[C@@H](C)CN([C@@H](C)CO)C2=O,-5,2.8,-21,0.07
COc1ccc(S(=O)(=O)N(C)C[C@H]2Oc3c(NC(=O)c4ccc(-c5nccs5)cc4)cccc3C(=O)N([C@@H](C)CO)C[C@H]2C)cc1,4,.,-19,-0.17
C[C@@H]1CN([C@H](C)CO)C(=O)c2cccc(NS(=O)(=O)c3ccc(F)cc3)c2O[C@@H]1CN(C)Cc1ccc(C(F)(F)F)cc1,-5,1.5,-28,-0.4
Cc1c(F)cccc1NC(=O)CCC(=O)O,-14,1.2,.,.
C[C@H]1CN([C@@H](C)CO)C(=O)c2cc(NS(=O)(=O)c3ccc(F)cc3)ccc2O[C@H]1CN(C)S(=O)(=O)c1ccc(Cl)cc1,-1,0.2,.,0.19
Cc1cc(C)nc(N(C#N)Cc2cccc([N+](=O)[O-])c2)n1,-13,0.2,.,.
C[C@@H]1CN([C@H](C)CO)C(=O)c2cccc(NC(=O)Nc3ccc4c(c3)OCO4)c2O[C@@H]1CN(C)S(=O)(=O)c1cccs1,-51,.,10,0.26
C[C@H](CO)N1C[C@H](C)[C@H](CN(C)S(=O)(=O)c2ccc(F)cc2)Oc2ccc(NC(=O)Nc3ccccc3)cc2CC1=O,8,0.5,-9,0.069
CC(C)NC(=O)Nc1cccc2c1O[C@@H](CN(C)Cc1ccncc1)[C@@H](C)CN([C@@H](C)CO)C2=O,-6,0.4,-7,-0.46
C[C@@H]1CN([C@@H](C)CO)C(=O)Cc2cc(NC(=O)CCC(F)(F)F)ccc2O[C@@H]1CN(C)C(=O)Nc1ccc(F)cc1,5,1.0,4,0.15
c1coc(-c2nn3c(C4COc5ccccc5O4)nnc3s2)c1 (centres undefined),-26,-1.3,.,.

# A run of entries from further up:
SMILES,MITF inh,PD-1 reversal,Shh pathway inh,YB-1 expression
Cc1noc(C)c1S(=O)(=O)Nc1cccc2c1O[C@H](CN(C)Cc1ccc(C(=O)O)cc1)[C@@H](C)CN([C@@H](C)CO)C2=O,-5,2.8,-21,0.07
COc1ccc(S(=O)(=O)N(C)C[C@H]2Oc3c(NC(=O)c4ccc(-c5nccs5)cc4)cccc3C(=O)N([C@@H](C)CO)C[C@H]2C)cc1,4,.,-19,-0.17
C[C@@H]1CN([C@H](C)CO)C(=O)c2cccc(NS(=O)(=O)c3ccc(F)cc3)c2O[C@@H]1CN(C)Cc1ccc(C(F)(F)F)cc1,-5,1.5,-28,-0.4
Cc1c(F)cccc1NC(=O)CCC(=O)O,-14,1.2,.,.

# By substructure: those above containing a nitro group on carbon (3)
SMILES,MITF inh,PD-1 reversal,Shh pathway inh,YB-1 expression
Cc1ccc(NC(=O)COc2ccc(Br)cc2C)c([N+](=O)[O-])c1,-29,1.1,.,.
Cc1ccc([N+](=O)[O-])cc1S(=O)(=O)NCCc1c(C)[nH]c2ccccc12,-23,1.0,.,.
Cc1cc(C)nc(N(C#N)Cc2cccc([N+](=O)[O-])c2)n1,-13,0.2,.,.

# High-throughput results (PubChem BioAssay)

# An excerpt; count on the stated rates, not on these rows.
